Bioassay records deposited in PubChem by several laboratories.
GALR2 ag: GALR2 receptor agonists, primary screen, cell-based | Galanin receptor type 2 (Homo sapiens), O43603 | GALR2-expressing cells, agonist activation read-out | activation, %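 (tested at 5 µM)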 | 140,000 compounds, 0.48% hits | AID 803, 2007;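 active = above mean plus 3 SD of all compounds, about 5% in these data, not always enough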;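 note: 0% = vehicle buffer wells and 100% = reference agonist at full effect; tested in CHO reporter cells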
Target sequence (O43603 whole entry, looked up): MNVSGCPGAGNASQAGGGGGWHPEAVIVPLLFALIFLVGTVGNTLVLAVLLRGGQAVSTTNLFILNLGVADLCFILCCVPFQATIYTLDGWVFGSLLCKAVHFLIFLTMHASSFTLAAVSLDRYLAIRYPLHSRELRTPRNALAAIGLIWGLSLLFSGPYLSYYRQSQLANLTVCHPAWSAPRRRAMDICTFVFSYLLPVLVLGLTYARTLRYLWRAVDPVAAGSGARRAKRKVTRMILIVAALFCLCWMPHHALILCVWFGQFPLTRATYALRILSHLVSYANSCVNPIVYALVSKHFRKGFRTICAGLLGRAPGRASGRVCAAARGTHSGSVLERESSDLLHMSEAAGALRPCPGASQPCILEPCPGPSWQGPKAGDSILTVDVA
PKD1 kinase inh: inhibitors of human PKD1 kinase, biochemical, fluorescence polarization | Serine/threonine-protein kinase D1 (Homo sapiens), Q15139 | 200,000 compounds, 0.056% hits | PKD1 kinase fluorescence polarization assay | inhibition, %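 (about 10 µM by stock and volumes)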 | AID 797, 2007;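 active = inhibition of 50% or more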;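 note: controls were vehicle for no effect and a reference inhibitor for full effect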
HSV replic up: enhancers of HSV replication in host cells, fold increase, host cell viability. 220,000 compounds, 0.005% hits. maximum fold increase. HSV replication augmentation in cells;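 active = peak rise of 1.5-fold or more in the series; inconclusive = self-fluorescent or not available for retest; tested in PC3 cells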;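 note: first round at 10 µM; read as green reporter fluorescence; hits show the peak of a series up to 25 µM; 1 = signal of infected wells without compound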
Insulin prom inh: inhibitors of insulin promoter-driven GFP, primary screen, imaging, TRM-6 cells (human fetal islet line), eGFP reporter, cell count | reporter expression induced with tamoxifen | inhibition, % at 2 µM | 130,000 compounds, 0.9% hits;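 active = inhibition above the mean plus 3 SD, with well images judged a real hit on visual review, cut at about 60% in these data, passing the limit was not always enough; inconclusive = inhibition over the cutoff but images rejected on review; inactive = inhibition not above the cutoff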
RGS16-Gao HTS: modulators of RGS16 binding to Galphao, primary screen, biochemical, human proteins, multiplexed bead flow cytometry | Regulator of G-protein signaling 16 (Homo sapiens) + Guanine nucleotide-binding protein … | bead-based flow cytometry RGS16-Galphao binding, fluorescence; actives lie on both sides | binding response (% of control), % at 10 µM | 220,000 compounds, 0.38% hits;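 active = below 25% or above 175%, edge rows of some plates excepted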;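 note: Galphao activated by GDP with aluminum fluoride before binding; 100% = wells without compound and 0% = beads without RGS; some results beyond the cut were filed as inactive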
Target sequence (O15492 whole entry, looked up): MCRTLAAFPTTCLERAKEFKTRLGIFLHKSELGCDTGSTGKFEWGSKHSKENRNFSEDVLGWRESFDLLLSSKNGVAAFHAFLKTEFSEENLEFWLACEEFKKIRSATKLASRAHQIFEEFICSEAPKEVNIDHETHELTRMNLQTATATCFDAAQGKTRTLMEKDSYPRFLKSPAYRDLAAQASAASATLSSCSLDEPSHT
Target sequence (P09471 whole entry, looked up): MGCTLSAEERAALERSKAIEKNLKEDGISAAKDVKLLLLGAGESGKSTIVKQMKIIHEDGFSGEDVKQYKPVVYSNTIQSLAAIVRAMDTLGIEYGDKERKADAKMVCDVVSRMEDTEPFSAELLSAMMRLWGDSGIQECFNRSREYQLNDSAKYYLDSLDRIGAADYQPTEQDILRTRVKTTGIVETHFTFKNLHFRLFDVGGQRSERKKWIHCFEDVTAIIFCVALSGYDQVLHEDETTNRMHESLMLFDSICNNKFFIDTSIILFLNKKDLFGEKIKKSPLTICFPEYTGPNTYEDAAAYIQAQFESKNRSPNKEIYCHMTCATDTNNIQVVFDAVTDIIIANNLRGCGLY
Insulin prom inh cell count: second read-out of Insulin prom inh, no call of its own (marks repeat the call); normalized cell count, %; measured here: cell count, toxicity; reference of the scale not given here;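 cells exposed to compound for 48 h; stained nuclei by imaging scaled within each plate; lower means fewer cells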
HSV replic up primary fold: recorded beside HSV replic up, whose call it bears; fold increase; compound at 10 µM; measured here: primary screen fold increase 10 uM; tested in PC3 cells;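 GFP signal in the first replicate; 1 = infected wells without compound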
* hit, by the source's call; i = inactive; u = inconclusive; x = no result given.

SMILES	GALR2 ag	PKD1 kinase inh	HSV replic up	HSV replic up primary fold	Insulin prom inh	Insulin prom inh cell count	RGS16-Gao HTS
CCOC(=O)Cc1[nH]nc2c1C(c1cccc(OC)c1OC)C(C#N)=C(N)O2 (stereo unspecified)	-0.4	0	x	x	-211	72	104
Cc1cn2c(nc(=O)c3cccnc32)s1	-0.3	-12	i	1	-37	116	100
COc1ccc(CCNC(=O)c2cc(-c3ccccc3O)n[nH]2)cc1OC	1.6	7	i	0.87	57	101	101
CC(C)(C)c1ccc(NC(=O)COc2ccc(-n3ccnc3)cc2)cc1	-3.7	5	i	0.81	-8	106	97
Cc1nn(C(=O)c2nn(C)cc2[N+](=O)[O-])c(C)c1Br	x	3	i	0.94	-14	113	90
COc1cc(/C=C/C(=O)OCC(=O)c2c(N)n(C)c(=O)n(C)c2=O)ccc1OCC#N	x	-8	i	0.91	x	x	99
OC1CNCc2cc3c(cc21)OCCO3 (stereo unspecified)	-1.9	-7	i	1.5	20	145	98
Cc1ccc(C(=O)Nc2ccc(F)cc2)o1	-0.3	10	i	1.1	-12	120	98
O=C(CSc1nnc(-c2ccncc2)n1CC1CCCO1)Nc1cccc(O)c1 (stereo unspecified)	1.6	3	i	0.92	-8	78	100
Cc1ccc(S(=O)(=O)N(C)CCCC(=O)N2CCOCC2)cc1	-1.6	5	i	0.96	x	x	93
Cc1cc(C)n(Cc2ccc(NC(=O)c3ccc(COc4ccccc4Br)cc3)cc2)n1	-1.7	3	x	x	0	111	109
CCOc1ccc(NC(=O)CSc2nnc(C(C)C)n2CC)cc1	-2.0	-3	i	1	8	95	99
Cc1ccc(NC(=O)CC2=NC(=O)C(CC(=O)Nc3ccccc3C)S2)cc1 (stereo unspecified)	x	-3	i	0.97	x	x	102
O=C(Nc1ccccn1)C1(c2cccs2)CCOCC1	-1.3	2	i	1.1	17	77	61
COC(=O)c1cc(=O)n2c(-c3ccccc3)csc2n1	-1.9	4	x	x	x	x	99
CCC(C)(C(=O)NC1CCCCC1)N(Cc1cccs1)C(=O)Cc1cccs1 (stereo unspecified)	-3.4	8	i	1.1	-28	108	104
O=C(Cc1ccc(F)cc1)N/N=C/c1ccccn1	-1.0	-5	i	0.94	0	115	120
CN(C)c1ccc(-c2noc(C3CCN(S(=O)(=O)c4ccc(C(=O)O)cc4)CC3)n2)cc1	-0.3	-4	i	0.87	-23	70	x
CCS(=O)(=O)N1CCCC(C(=O)NC2CCCCC2C)C1 (stereo unspecified)	-2.3	-1	i	1	-100	16	84
COCCNC(=O)C(c1ccc(F)cc1)N(C(=O)CCC(=O)Nc1nccs1)c1ccc(C)cc1 (stereo unspecified)	x	0	i	0.89	x	x	103
COc1ccc(OC)c(C(c2nnnn2CCc2ccccc2)N2CCC(C(N)=O)CC2)c1 (stereo unspecified)	-2.1	-3	i	0.96	x	x	100
N#CCC(=O)N/N=C/c1cn(Cc2ccccc2C#N)c2ccccc12	x	x	i	0.98	x	x	92
Clc1ccc(Nc2nc(-c3cccnc3)cs2)cc1	-1.3	-3	i	0.91	26	106	93
O=C(NCC1CCCO1)C(C(=O)c1ccccc1)n1ccccc1=O (stereo unspecified)	-0.6	2	i	1.1	x	x	102
C(=N\N1CCN(Cc2cccc3ccccc23)CC1)/c1ccco1	0.5	0	i	0.89	-3	128	98
Oc1ccc(N=Nc2nccs2)c(O)c1	x	x	i	0.91	x	x	-16*
O=C(Nc1cccc(S(=O)(=O)N2CCCCC2)c1)c1ccc(OCC2CCCO2)cc1 (stereo unspecified)	x	-2	i	1	20	116	103
CC(C)Oc1ccc(C(=O)Nc2ccccc2N2CCOCC2)cc1	x	1	i	0.86	-35	130	100
COc1ccccc1CNC(=O)C1CCN(S(=O)(=O)N2CC(C)CC(C)C2)CC1 (stereo unspecified)	1.6	-15	i	0.82	15	79	100
O=C(N/N=C/c1sc(N2CCCCC2)nc1-c1cccs1)c1cccnc1	x	33	u	x	-53	90	102

An excerpt of these results, as comma-separated lines.
SMILES,GALR2 ag,PKD1 kinase inh,HSV replic up,HSV replic up primary fold,Insulin prom inh,Insulin prom inh cell count,RGS16-Gao HTS
COc1ccc(OC)c(C(c2nnnn2CCc2ccccc2)N2CCC(C(N)=O)CC2)c1 (stereo unspecified),-2.1,-3,i,0.96,x,x,100
N#CCC(=O)N/N=C/c1cn(Cc2ccccc2C#N)c2ccccc12,x,x,i,0.98,x,x,92
Clc1ccc(Nc2nc(-c3cccnc3)cs2)cc1,-1.3,-3,i,0.91,26,106,93
O=C(NCC1CCCO1)C(C(=O)c1ccccc1)n1ccccc1=O (stereo unspecified),-0.6,2,i,1.1,x,x,102
C(=N\N1CCN(Cc2cccc3ccccc23)CC1)/c1ccco1,0.5,0,i,0.89,-3,128,98
Oc1ccc(N=Nc2nccs2)c(O)c1,x,x,i,0.91,x,x,-16*
O=C(Nc1cccc(S(=O)(=O)N2CCCCC2)c1)c1ccc(OCC2CCCO2)cc1 (stereo unspecified),x,-2,i,1,20,116,103

Other results:
SMILES	GALR2 ag	PKD1 kinase inh	HSV replic up	HSV replic up primary fold	Insulin prom inh	Insulin prom inh cell count	RGS16-Gao HTS
COc1ccc(N(CC(=O)Nc2c(C)n(C)n(-c3ccccc3)c2=O)S(=O)(=O)c2ccccc2)cc1OC	0.3	7	i	0.78	-8	177	110
O=C(Cn1c(=O)oc2cc(S(=O)(=O)N3CCCC3)ccc21)N1CCc2ccccc2C1	-3.0	1	i	0.98	x	x	102
C#CCOC(=O)Nc1ccc(=O)n(Cc2c(Cl)cccc2Cl)c1	-3.4	-3	i	0.88	-229	105	108
COc1cc(CN2CCC(C(=O)NC3CCCC3)CC2)ccc1O	0.1	-3	i	0.83	13	208	104
Cc1cc(C)c(S(=O)(=O)NCCn2c(C)cc3ccccc32)c(C)c1	-2.4	3	i	0.89	x	x	103
COc1ccc(OC)c(NC2c3ccccc3C(=O)N2c2cccnc2)c1 (stereo unspecified)	-0.2	12	i	0.9	x	x	86
O=C(O)/C=C/c1ccccc1[N+](=O)[O-]	x	x	i	0.93	x	x	100
COc1cccc(CN2C(=O)CCC2(C)C(=O)NC2CCCCCC2)c1 (stereo unspecified)	-2.3	3	i	0.93	25	113	111
CC(C)Cc1cc(C(=O)N2CCC(N3CCC(C(=O)NC4CC4)CC3)CC2)n[nH]1	x	0	i	1.5	x	x	99
Clc1cccc(Oc2cnc3ccccc3n2)c1	1.5	9	i	0.75	x	x	100
O=C(NCCN1CCOCC1)c1cc2cc(Br)ccc2oc1=O	-0.3	-7	x	x	50	72	181
CCn1nc(C)c(CNC(=O)CCc2nnc(Cc3c[nH]c4ccccc34)o2)c1C	x	-10	i	1	x	x	98
CCn1cc(CN2CCCC(C(=O)c3ccc(-c4ccccc4)cc3)C2)cn1 (stereo unspecified)	x	-7	i	0.71	x	x	105
CCOC(=O)c1ccc(NC(=O)CSc2nnc(CNc3ccc(C)cc3)n2C)cc1	-0.9	-5	i	0.97	-256	80	93
CC(C)(C)NS(=O)(=O)c1ccc(NS(=O)(=O)c2ccc(F)cc2)cc1	-2.0	-20	i	0.94	15	75	98
COC(=O)c1ccc(COc2ccc(/C=N/NC(=O)C(=O)Nc3ccc(OC)cc3)cc2OC)o1	x	x	i	1.1	x	x	100
COc1ccc(Br)cc1/C=C/C(=O)Nc1ccc2ccccc2c1	-0.3	3	i	0.9	17	130	26
COc1nnc(-c2ccc(C)c(S(=O)(=O)NCCO)c2)c2ccccc12	-1.2	-8	i	0.97	14	58	94
COc1ccc(/C=C2\N=C(SC)NC2=O)cc1	-0.9	1	i	0.96	-25	125	102
Cc1cc([N+](=O)[O-])ccc1NCc1ccccc1	-2.4	-3	i	1.1	x	x	104
CC1CCN(C(=O)CSc2ccc(-c3cccc([N+](=O)[O-])c3)nn2)CC1	x	-1	i	0.94	x	x	100
Cc1cccc(CN2C(=O)N/C(=C/c3cc(C)n(-c4cc(C)ccn4)c3C)C2=O)c1	-2.2	0	i	1.1	29	100	100
CCCC(=O)Nc1ccc2oc(=O)ccc2c1	x	0	i	1	-5	101	104
Cc1[nH]c2ccccc2c1C(=O)CSc1nncn1C	0.2	-2	i	0.94	-388	87	109
Cc1ccc(S(=O)(=O)Oc2ccc(/C=C(/NC(=O)c3ccccc3)C(=O)Nc3ccccc3)cc2)cc1	0.7	-2	u	x	31	61	98
C(=N\NCc1ccccc1)/c1ccc2nccnc2c1	x	x	i	1.1	x	x	103
COc1ccc(C(=O)c2cnc[nH]2)cc1	x	x	i	0.92	x	x	107
O=C(CSc1nnc(CNc2ccc(Cl)cc2)o1)Nc1nc2ccccc2s1	1.5	-12	i	0.65	14	109	103
O=C(Nc1ccccc1N1CCOCC1)c1ccc(Br)o1	-2.8	7	i	0.92	-25	164	105
O=C(O)c1ccc(/C=N/O)cc1	x	x	i	0.9	x	x	100
O=C(Nc1nc(-c2ccccc2)cs1)c1ccc(N2CCOCC2)c([N+](=O)[O-])c1	-1.9	-8	i	0.76	x	x	105
CCCCC(C(=O)O)C(C)CC(=O)Nc1cccc(C(=O)O)c1 (stereo unspecified)	-0.6	-5	i	1	x	x	100
COc1cc(NC(=O)COC(=O)C=C(C)C)c(C)cc1[N+](=O)[O-]	x	0	i	0.91	x	x	95
COc1ccc(C(=O)Nc2nnc(CCS(=O)(=O)c3ccc(C)cc3)s2)cc1	x	-5	i	0.98	36	120	112
NS(=O)(=O)c1ccc2c(c1)oc(=O)c1cc(S(N)(=O)=O)ccc12	x	-3	i	0.86	x	x	100
OCCN(CCO)CC(O)COc1ccc(C23CC4CC(CC(C4)C2)C3)cc1 (stereo unspecified)	1.5	1	i	0.82	21	151	102
CCOC(=O)C1CCN(C(=O)CCc2c(C)nc3cc(-c4ccc(OC)cc4OC)nn3c2C)CC1	x	-6	i	0.9	-107	89	103
COc1ccccc1CN(C(=O)CCl)C(C(=O)NC1CCCCC1)c1ccncc1 (stereo unspecified)	-1.5	-1	i	1.2	48	111	91
COc1ccc(CCNC(=O)C2CCN(S(=O)(=O)N3CCOCC3)CC2)cc1OC	-1.0	-11	i	1.1	x	x	104
CC(=O)N1CCOCCOCCN(C(C)=O)CCOCC1	x	-2	i	0.95	40	80	81
O=C(NCc1ccc(N2CCCC2=O)cc1)c1cn(Cc2ccccc2)nn1	-0.4	-6	i	1.2	12	130	109
Cc1ccnc(NS(=O)(=O)c2ccc(NC(=O)c3cc(-c4ccccc4)nc4ccccc34)cc2)n1	0.1	-5	i	1	33	137	110
O=C(c1cc(N2C(=O)C3C4CCC(C4)C3C2=O)ccc1Cl)N1CCCCCC1 (stereo unspecified)	x	3	i	1	-26	134	98
Cc1cc(C=O)c(C)n1-c1ccc(NC2CCCCC2)c([N+](=O)[O-])c1	-2.7	11	x	x	-37	61	93
NS(=O)(=O)c1cccc(NC(=O)CN2CCC(Cc3ccccc3)CC2)c1	x	7	i	0.96	36	41	140
Cc1cc(C)c2nc(SCC(=O)NCC3CCCO3)c(C#N)cc2c1 (stereo unspecified)	x	-1	i	1.1	-50	94	102
COc1ccc2cc(/C=N/NC(=O)CSCc3ccc([N+](=O)[O-])cc3)c(Cl)nc2c1	-0.9	16	i	0.89	0	65	102
O=[N+]([O-])c1cc(C(F)(F)F)ccc1N1CCN(CCO)CC1	x	2	i	0.92	-43	83	107
O=S(=O)(NCc1ccccn1)c1ccc(Br)s1	-2.1	-11	i	1.1	x	x	31
O=C(CN1N=C(c2ccccc2)CCC1=O)NCc1ccccc1	x	-6	i	0.95	-8	120	102
CCn1c(=O)[nH]c2cc(C(=O)Nc3cc(C)cc(C)c3)ccc2c1=O	x	-4	i	1	x	x	100
CCc1c(O)nc2sc3ccccc3n2c1=O	-2.0	12	i	1.1	x	x	105
CC(=O)N(c1ccc(Br)cc1)C1C=CS(=O)(=O)C1 (stereo unspecified)	-1.8	0	i	0.99	x	x	104

Arranged by number of heavy atoms (rising): some entries from above
SMILES	GALR2 ag	PKD1 kinase inh	HSV replic up	HSV replic up primary fold	Insulin prom inh	Insulin prom inh cell count	RGS16-Gao HTS
CCc1c(O)nc2sc3ccccc3n2c1=O	-2.0	12	i	1.1	x	x	105
O=C(NCc1ccc(N2CCCC2=O)cc1)c1cn(Cc2ccccc2)nn1	-0.4	-6	i	1.2	12	130	109
Cc1ccnc(NS(=O)(=O)c2ccc(NC(=O)c3cc(-c4ccccc4)nc4ccccc34)cc2)n1	0.1	-5	i	1	33	137	110
